VDR inh: Inhibitors of the vitamin D receptor (VDR): qHTS; Vitamin D3 receptor (Homo sapiens), P11473; AID 504847, 2011; actives 0.93% (n = 400,000); VDR-SRC2-3 peptide fluorescence polarization, 2 h; Potency, µM, for inactives: max response, negative = inhibition, most hits filed as inhibitors; active = well fitted inhibition curve with a large enough effect; inconclusive = small, poorly fitted or top-dose-only effect, or another doubt; inactive = no such curve, though single readings can be large or run the other way; also: series mostly up to about 120 µM
Target sequence (P11473 whole entry, looked up): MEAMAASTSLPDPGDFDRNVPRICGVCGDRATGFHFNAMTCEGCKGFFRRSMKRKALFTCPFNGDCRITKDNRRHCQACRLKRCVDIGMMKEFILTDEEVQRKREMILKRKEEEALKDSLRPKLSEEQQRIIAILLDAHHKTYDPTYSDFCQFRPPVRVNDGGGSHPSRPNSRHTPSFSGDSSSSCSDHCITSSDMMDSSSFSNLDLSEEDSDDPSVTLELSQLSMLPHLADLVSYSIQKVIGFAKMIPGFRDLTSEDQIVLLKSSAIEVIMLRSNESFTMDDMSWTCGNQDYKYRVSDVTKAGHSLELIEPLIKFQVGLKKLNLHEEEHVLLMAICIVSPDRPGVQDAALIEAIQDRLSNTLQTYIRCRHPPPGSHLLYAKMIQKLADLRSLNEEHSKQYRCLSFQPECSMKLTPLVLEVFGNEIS
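Two reagent solutions held at 4 deg C in the dark were dispensed, compounds pinned at 23 nl, and the mixture incubated 2 h at room temperature. Read-out: fluorescence polarization of VDR–SRC2-3 peptide binding.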
* = called active by the depositor; ? = inconclusive; & = joins results of further samples; [ ] = remark or other dose. % is scaled to controls: 0 for no effect and ±100 for the full control effect; potency is read from the fitted curve at half-maximal effect.

canonical_smiles | VDR inh
CC(C)CCn1c(CN2CCN(c3cccc(Cl)c3)CC2)nc2c1c(=O)n(C)c(=O)n2C | -11.4%
O=C(NCc1ccco1)c1ccc(Cl)nc1 | -0.6%
O=C(Nc1ccccc1)OC1C2CCC1C(N1CCCCC1)CC2 (stereo not given) | 9.8%
COc1ccccc1C(=O)NCCNc1nc2cc(C)cc(C)c2cc1C#N | -9.2%
O=C(CCCn1c(=S)[nH]c2cc3c(cc2c1=O)OCO3)NCCc1ccccc1Cl | 20.6%
O=C(NCc1cccnc1)/C(=C\c1ccc(-c2ccc(Br)cc2)o1)S(=O)(=O)c1ccccc1 | 39.8µM*
Cc1ccc2c(c1)C(c1ccc([N+](=O)[O-])cc1)=NNC(c1ccc(Br)cc1)=N2 | 6.0%
CCOC(=O)N/N=C/c1cn(Cc2ccc(F)cc2)c2ccccc12 | 0.7%
CCCCNC(=O)c1cn(CC)c2ccc(S(=O)(=O)N3CCCC3)cc2c1=O | 12.6%
O=C(NC1CC1)C1=C[C@H](C2CCCCC2)C[C@H](OCCCCO)O1 | -20.7%
CCn1c(NCc2cccc(OC)c2OC)nc2ccccc21 | -11.2%
COc1ccc(C(=O)NCC(=O)N2CC=C(c3ccccc3)CC2)cc1OC | -7.7%
O=C(C1CCCO1)N1CCN(S(=O)(=O)c2ccc(F)cc2)CC1 (stereo not given) | -13.1%
O=C(CCc1nc2ccccc2[nH]c1=O)OCc1ccc(S(=O)(=O)N2CCOCC2)cc1 | -1.4%
CCOc1c2ccc(C(=O)NCc3cc(C(F)(F)F)cc(C(F)(F)F)c3)cc2nn1CCOC | 8.1%
CC(C)(C)c1cc(=O)[nH]c(SCc2ccccc2Cl)n1 | -1.5%
Cc1nn2c(=O)cc(COC(=O)c3cccc(NC(=O)COc4ccc(C)c(C)c4)c3)nc2s1 | 12.7%
O=C(NC1CCCCCC1)c1c2c(nc3ccccc13)CCN(Cc1ccccc1)C2 | -0.3%
C=Cc1ccc(CSc2cc(C)nc3nc(C)nn23)cc1 | 44.3%[activator]
S=C(NCc1cccnc1)Nc1ccc(Cl)c(Cl)c1 | -8.1%
CCOC(=O)c1oc2ccccc2c1COC(=O)CNC(=O)c1ccccc1OC | 2.0%
C=CCNc1nc(N)c(C(=O)c2ccc3c(c2)OCO3)s1 | 11.8%
COC(=O)c1ccc(Nc2nc3ccc(C)cc3n3cnnc23)cc1 | -16.8%
Nc1nc(-c2ccccc2Cl)cs1 | ?
CCCn1c(N)c(N(CCOC)C(=O)c2ccc([N+](=O)[O-])cc2Cl)c(=O)[nH]c1=O | -1.7%
CCC(C)(C)NC(=O)C(c1ccc(C)o1)N(Cc1cccs1)C(=O)Cn1nnc2ccccc21 (stereo not given) | 11.1%
O=C(CC1SCCNC1=O)Nc1ccc(Cl)c(Cl)c1 (stereo not given) | 2.2%
CCCCN(C)CCNC(=O)c1ccc2c(=O)n(CCc3ccccc3)c(=O)[nH]c2c1 | -11.1%
CCOC(=O)c1ccc(NC(=O)C2CCCN(S(=O)(=O)c3ccc(F)cc3)C2)cc1 (stereo not given) | -15.6%
COc1ccc(CCNC(=O)c2cn3ccc(C)cc3n2)cc1OC | 1.3%

Ordered by value in VDR inh (lowest first): 4 of the compounds above
SMILES | VDR inh
CCCn1c(N)c(N(CCOC)C(=O)c2ccc([N+](=O)[O-])cc2Cl)c(=O)[nH]c1=O | -1.7%
CC(C)(C)c1cc(=O)[nH]c(SCc2ccccc2Cl)n1 | -1.5%
CCCCNC(=O)c1cn(CC)c2ccc(S(=O)(=O)N3CCCC3)cc2c1=O | 12.6%
O=C(CCCn1c(=S)[nH]c2cc3c(cc2c1=O)OCO3)NCCc1ccccc1Cl | 20.6%

The list goes on:
canonical_smiles | VDR inh
COc1ccc(NC(=O)CCSCCC(=O)Nc2ccc(OC)cc2OC)c(OC)c1 | -14.7%
COc1ccc(OC)c(NC(=S)Nc2ccccc2)c1 | -24.0%
CCCNC(=O)NC(=O)COC(=O)c1ccc(OC)c(S(=O)(=O)N2CCCc3ccccc32)c1 | 13.9%
NC(=O)c1ccccc1NC(=O)c1ccccc1S(=O)(=O)c1ccccc1[N+](=O)[O-] | -26.6%
Cc1cc2ccccc2n2c(SCC(=O)Nc3cccc(C(F)(F)F)c3)nnc12 | -16.4%
CCCc1cc(C(=O)Nc2cccnc2Cl)no1 | -8.6%
Cc1ccc(C(=O)NCC(=O)OC(C)C(=O)NCCC2=CCCCC2)cc1C (stereo not given) | -11.3%
CC(C)(O)CCC(O)[C@@](C)(O)C1CC[C@]2(O)C3=CC(=O)C4CC(O)C(O)C[C@]4(C)C3CC[C@]12C (stereo not given in full) | -1.1%
CCOc1cc(C2C(C(=O)OC)=C(C)NC3=C2C(=O)c2ccccc23)cc(Cl)c1O (stereo not given) | -2.5%
COc1ccc(OC)c(S(=O)(=O)N2CCC(C(=O)N(C)Cc3ccccc3)CC2)c1 | -15.4%
CCc1nc(C)cn1S(=O)(=O)c1cc(OC)c(C)cc1C | 9.0%
COc1ccccc1CNC(=O)CNC(=O)[C@@H]1Cc2ccccc2CN1 | -4.7%
CCOCc1nnc(NC(=O)C2CC(=O)N(CCc3ccc(F)cc3)C2)s1 (stereo not given) | 2.4%
Oc1ccc(Br)cc1-c1cc(-c2ccccc2F)[nH]n1 | 0.1%
O=C(Nc1cc(Cl)cc(Cl)c1)c1cc(S(=O)(=O)N2CCc3ccccc3C2)ccc1F | 15.3%
CC1CCCC(C)N1C(=O)c1ccc(S(=O)(=O)N2CCCC2)cc1 (stereo not given) | 3.4%
Cc1ccc(S(=O)(=O)N2CCOCC2)cc1C(=O)OCC(=O)c1ccc[nH]1 | 10.3%
Cc1ccccc1NC(=O)COC(=O)c1ccc(CSc2ccc(Cl)cc2)cc1 | -15.8%
COc1cc(C2C(C(=O)C(C)(C)C)=C(O)C(=O)N2Cc2ccccc2)ccc1O (stereo not given) | 7.8%
COc1ccccc1CNS(=O)(=O)c1ccc2c(c1)oc(=O)n2C | -2.3%
CCOC(=O)C1CCCN(C(=O)c2[nH]c3ccccc3c2Sc2ccc(Cl)cc2)C1 (stereo not given) | -3.8%
CC(C)C(NS(=O)(=O)c1cccs1)C(=O)N(C)Cc1ccccc1 (stereo not given) | 4.0%
O=C(O)c1ccccc1OCc1nc2ccccc2s1 | 1.1%
CCN(CC)S(=O)(=O)c1ccc(NC(=O)c2cc(-c3ccccc3)nc3ccccc23)cc1 | -15.9%
Cc1cc(C(=O)N/N=C/c2cccn2C)no1 | 0.7%
COCCN(C(=S)Nc1cccc(C)c1)C(C)c1cccs1 (stereo not given) | -15.5%
CCCCn1c(N)c(N(CCOC)C(=O)CCc2ccc(OC)cc2)c(=O)[nH]c1=O | -12.4%
CCCN(CC(=O)Nc1ccccc1OC)C(=O)CCC(=O)c1ccc(Cl)s1 | 17.2%
COCCCNC(=O)Cn1c(=O)n(Cc2ccccc2Cl)c(=O)c2cc(OC)c(OC)cc21 | -12.6%
Cc1cc(Br)ccc1NC(=O)CNC(=O)CSc1ncccn1 | -10.3%
O=C(NCc1ccco1)c1cnn2cccnc12 | -23.5%
O=C(c1cccc(Cl)c1)N1CCN(C2CCCCC2)CC1 | -29.1%
N#Cc1c(F)cccc1NCCCn1ccnc1 | -3.7%
Cc1cccc(C(=O)N[C@H](C(=O)Nc2nc3ccccc3[nH]2)C(C)C)c1 | -0.3%
COC(=O)[C@]1(Cc2ccccc2)N[C@H](c2ccc(-c3ccc(Cl)c(Cl)c3)cc2)[C@@H]2C(=O)N(C)C(=O)[C@@H]21 | -10.1%
CC(C)CNS(=O)(=O)c1ccc(CCC(=O)Nc2cc(Cl)ccc2Oc2ccccc2)cc1 | 23.6%
CCOC(=O)CCC(=O)O[C@H]1C(O[C@@H]2C(C)[C@H](O[C@H]3C[C@@](C)(OC)C(O)C(C)O3)C(C)C(=O)OC(CC)[C@@](C)(O)C(O)[C@H](C)C(=O)C(C)C[C@]2(C)O)OC(C)CC1N(C)C (stereo not given in full) | 2.1%
COc1ccc(C2=Nn3c(nnc3-c3ccccn3)SC2)cc1OC | -5.1%
CCOC(=O)C1CCCN(c2nc(C)nc3c2oc2ccccc23)C1 (stereo not given) | -2.2%
O=C1CCCC2=C1C(c1ccsc1)CC(=O)N2c1nnc(SCc2ccccc2)s1 (stereo not given) | -19.1%
Cc1cc(C)c2c(=O)c3c(oc2c1)C(=O)N(Cc1ccco1)C3c1ccc(F)cc1 (stereo not given) | 2.3%
O=C(CCC1CCCCC1)NCc1ccccn1 | -7.0%
COc1cc(CN2CCC(C(=O)NC3CCCC3)CC2)cc(OC)c1O | -13.2%
CCc1ccccc1NC(=O)C1CCCN1C(=O)Nc1ccc(C)cc1 (stereo not given) | 10.0%
CN1CCN(S(=O)(=O)c2ccc(C3CCCCC3)cc2)CC1 | -18.3%
CCCc1cc(=O)oc2c(C)c(OCC(=O)NC3CC(C)(C)NC(C)(C)C3)ccc12 | -1.2%
Cc1ccccc1CN(c1ccc(C(=O)Nc2ccccc2C(=O)NCc2ccco2)cc1)S(C)(=O)=O | -8.2%
Cc1ccc(N2C(=O)CC(Sc3nc(-c4ccccc4)c4cc(Cl)ccc4n3)C2=O)c(C)c1 (stereo not given) | 3.8%
O=c1c2ccccc2sc2ccccc12 | 5.7%
CCCNC(=O)c1cc2n(n1)CCCN(Cc1ccc(C)cc1)C2=O | -5.6%
O=C(NNc1ccc([N+](=O)[O-])cc1)c1ccccc1F | 15.7%
C[C@H](NC(=O)OC(C)(C)C)C(=O)NCC1CCC(C(=O)N[C@@H](Cc2ccccc2)C(=O)O)CC1 (stereo not given in full) | -1.8%
Oc1cc2c(cc1O)CN(C(=S)NCCc1ccc(Cl)cc1)CCC2 | -20.1%&-23.4%
CC[C@@H]1CN(C)[C@H]2Cc3c([nH]c4ccccc34)C(=O)C[C@@H]1[C@@H]2C(=O)OC | -20.2%
CCOC(=O)c1c(C)[nH]c2c1-c1ccccc1C(=O)C2=O | -13.8%
COc1cccc(-c2nc(CS(=O)(=O)CC(=O)N3CCc4ccccc4C3)c(C)o2)c1 | -0.3%
Cc1ccc(NC2CCCN(C(=O)c3c(C)noc3C)C2)cc1C (stereo not given) | 8.4%
Cc1ccc(CNC(=O)C(Cc2ccccc2)NS(=O)(=O)c2ccc3c(c2)CCC(=O)N3)cc1 (stereo not given) | -9.2%
Cc1ccc(NC2=C(NC(=O)c3ccccc3)C(=O)c3ccccc3C2=O)cc1Cl | -14.9%
O=C(O)C1=C(C(=O)Nc2cccc(C(F)(F)F)c2)CCCC1 | 4.1%

Remaining list, next part.
canonical_smiles | VDR inh
COc1ccc2ncc3c(-c4ccc(C)c(C)c4)nn(CC(=O)Nc4ccccc4)c3c2c1 | 0.7%
Cc1ccc(OCCC(=O)OCC(=O)Nc2cc(S(=O)(=O)N(C)C)ccc2C)cc1 | -13.7%
COc1ccccc1N=c1oc2cc(O)ccc2cc1C(N)=O | -12.2%
CN(C)C(=O)c1ccc(NC(=O)c2cc(-n3cnnc3)ccc2Cl)cc1 | ?
COc1ccc(-n2nc3cc(C)c(N)c(Br)c3n2)cc1 | -0.9%
COc1ccc(-c2noc(CSc3nc4ccccc4c(=O)n3-c3ccccc3)n2)cc1 | -1.0%
Cc1noc(C)c1COc1cccc(C(=O)N(C)Cc2nc3ccccc3c(=O)[nH]2)c1 | 4.3%
O=C1CC2(CON=C2c2ccc(F)cc2)C(=O)N1c1ccc(F)cc1 (stereo not given) | -18.8%
O=C(Nc1ccc(Cl)cc1)OCCN1CCOCC1 | -8.6%
COc1ccc(CN2CCCC(C(=O)Nc3cccc(-n4cccn4)c3)C2)c(F)c1 (stereo not given) | -15.4%
Nc1ccn(CC(=O)N2CCN(c3ccccn3)CC2)c(=O)n1 | ?
COc1ccc(CCNC(=O)CC2SC(=Nc3cc(C)cc(C)c3)NC2=O)cc1OC (stereo not given) | 18.4%
Cc1ccc(C(=O)N2CCCCC2C(=O)O)o1 (stereo not given) | -5.6%
Cc1cc(F)ccc1NC(=O)c1ccc(NS(=O)(=O)c2cc(C(C)(C)C)ccc2C)cc1 | -13.6%
COC(=O)c1ccc(Oc2c(C)oc3c(CN4CCN(C)CC4)c(O)ccc3c2=O)cc1 | 5.4%
COc1ccc(NC(=O)c2cc(-c3ccccc3)nc3c2c(C)nn3-c2ccccc2)c(OC)c1 | -16.4%
COc1ccc(-c2c(-c3ccc(OC)cc3O)nc(C)nc2C(F)(F)F)cc1 | 10.2%
COc1ccc(S(=O)(=O)NCC2CCCN(C(=O)CCSC)C2)cc1 (stereo not given) | -18.0%
COc1ccc2c(CNCCc3ccccc3C)c(C(=O)O)n(Cc3ccccc3C)c2c1 | 2.4%
Cc1cnc(CNc2cc(-c3ccccc3C)ncn2)cn1 | ?
COc1cc(C(=S)N2CCCCC2)ccc1OCC(=O)N1CCCC1 | -3.7%
O=C(CSc1nnc2[nH]c(=O)cc(-c3ccccc3)n12)Nc1ccccc1C(F)(F)F | -4.4%
Cn1c(SCc2cccc([N+](=O)[O-])c2)nc2c(c1=O)SCC2 | 12.6%
O=C(Nc1ccccc1)c1cccc(S(=O)(=O)NC2CCCC2)c1 | 27.2%
COc1cccc2cc(NC(=O)C3CCCCC3)c(=O)oc12 | 2.5%
Cc1cc(C(=O)OCC(=O)Nc2ccc(F)c(F)c2)c(C)o1 | 3.6%
CN(Cc1ccc(F)cc1)C(=O)COc1ccc2ccccc2c1 | 1.6%
Fc1ccc(Nc2nc(-c3cccc(Cl)c3)c3c(n2)-c2ccccc2OC3)c(F)c1 | 5.2%
C=CCN1C(=O)C(C)(C)Nc2ccccc21 | 6.1%

Compound activity as filed in PubChem.

An excerpt; rates above refer to the full screens.
